Bioassay records: PubChem, National Center for Advancing Translational Sciences (NCATS)
NS1 inh: inhibitors of influenza NS1 protein function. S. cerevisiae slowed by influenza A NS1, growth recovery by OD600. Potency, µM (top dose mostly 46.1 µM), without a hit: at the highest dose activity, positive = more growth. 270,000 compounds, 0.4% hits. AID 2326; active means well fitted rising curve with a large enough effect; inconclusive means small, poorly fitted or top-dose-only effect; inactive means no such curve, though single readings can be large or run the other way; also: nearly all actives have a fitted effect of over 50% in size
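Recovery from NS1-induced slow growth read by OD600 in budding yeast switched to galactose assay medium (pH 6.0, -URA) at 1:100 dilution. Compound 23 nl per well; the matching strain lacking NS1 serves as control.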
MARV entry inh: inhibitors of Marburg virus binding or cell entry. Marburg virus pseudotyped entry inhibition, cell reporter; control for the full effect not named in the record; about a third of the inactives were read at about 46 µM. Potency, µM (doses to about 37.8 µM), inactives show at the top dose activity change, negative = inhibition, usual class: inhibitors. 300,000 compounds, 1.8% hits; active = well fitted inhibition curve with a large enough effect; inconclusive = small, poorly fitted or top-dose-only effect, or effect the other way; inactive = flat fitted curve, though single readings scatter; tested in HEK293 cells; about a fifth of its hits are not listed in these tables; also: % is scaled to controls: 0 for no effect and ±100 for the full control effect; luciferase read-out
2A StopGo: FMDV 2A StopGo reporter, luciferase signal. Potency, µM (titrated, usually from 57.9 µM), for the others: at the top dose signal change, negative = less light. human cells with a luciferase reporter of 2A StopGo recoding; control for the full effect not named in the record. 410,000 compounds, 1.2% hits; active = well fitted falling curve with a large enough effect; inconclusive = small, poorly fitted or top-dose-only effect; inactive = no such curve, though single readings can be large or run the other way; tested in HEK293T cells; also: % is scaled to controls: 0 for no effect and ±100 for the full control effect; nearly all actives have a fitted effect of over 45% in size; luciferase light after 4 h
Lassa entry inh: Lassa virus entry inhibition; 300,000 compounds, 1.2% hits; Lassa virus pseudotype entry inhibition, cell reporter; control for the full effect not named in the record; AID 540256; Potency, µM (series often up to 37.9 µM), for the others: top-dose activity change, negative = inhibition, usual class: inhibitors; active means well fitted inhibition curve with a large enough effect; inconclusive means small, poorly fitted or top-dose-only effect, or effect the other way; inactive means flat fitted curve, though single readings scatter; tested in HEK293 cells; also: % is scaled to controls: 0 for no effect and ±100 for the full control effect; nearly all actives have a fitted effect of over 50% in size; luciferase read-out
RE007 growth inh: less growth of the S. pombe RE007 Vpr strain; S. pombe RE007 Vpr strain, BacTiter-Glo ATP luminescence, 24 h; control for the full effect not named in the record; Potency, µM (series often up to 92.2 µM), for the others: top-dose activity change, negative = less growth; 360,000 compounds, 0.21% hits; active = well fitted falling curve with a large enough effect; inconclusive = small, poorly fitted or top-dose-only effect; inactive = no such curve, though single readings can be large or run the other way;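 also: % is scaled to controls: 0 for no effect and ±100 for the full control effect; nearly all actives have a fitted effect of over 50% in size; the assay follows cell death caused by Vpr and the record does not say whether a fall means rescue or toxicity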
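Fission yeast strain RE007, carrying one chromosomally integrated HIV-1 vpr copy, was seeded at OD 0.01 in PMG+AL medium with 23 nL pinned compound. After 24 h at 30 °C and 99% humidity, viability was read by BacTiter-Glo luminescence.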
Cruzain inh noDet: blocks cruzain activity in detergent-free assay; purified cruzain, Z-FR-AMC fluorescence, no detergent; Potency, µM, for inactives: max response, negative = inhibition, hits mostly inhibitors; AID 1476; P25779; 200,000 compounds, 2.3% hits;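 also: plate controls were enzyme without inhibitor for no effect and buffer without enzyme for full effect; nearly all actives have a fitted effect of over 40% in size; top concentration of the series not given in the record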
Target sequence (P25779 123-467 limits assumed): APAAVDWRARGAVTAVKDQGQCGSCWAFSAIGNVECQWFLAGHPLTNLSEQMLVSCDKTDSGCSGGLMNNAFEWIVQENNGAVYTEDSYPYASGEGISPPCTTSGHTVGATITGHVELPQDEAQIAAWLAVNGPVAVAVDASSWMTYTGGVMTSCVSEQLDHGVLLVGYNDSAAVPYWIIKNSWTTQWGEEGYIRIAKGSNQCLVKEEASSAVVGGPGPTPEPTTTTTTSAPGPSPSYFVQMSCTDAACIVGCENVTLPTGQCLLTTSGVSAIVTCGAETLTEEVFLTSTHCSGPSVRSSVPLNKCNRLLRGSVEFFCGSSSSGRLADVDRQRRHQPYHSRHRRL
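Purified cruzain at 1.5 nM, pre-incubated 15 min with compound at room temperature in 100 mM sodium acetate pH 5.5, 5 mM DTT, 0.00005% Triton X-100. Reaction started with 2 uM Z-FR-AMC; AMC fluorescence increase over 60 s gives rate.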
SARS PLP yeast: SARS-CoV PLP inhibition in yeast | S. cerevisiae expressing SARS-CoV PLpro, growth rescue; control for the full effect not named in the record | Potency, µM (highest dose often 32.9 µM), inactives show at the highest dose activity, positive = growth rescue | 330,000 compounds, 0.19% hits; active means well fitted rising curve with a large enough effect; inconclusive means small, poorly fitted or top-dose-only effect; inactive means no such curve, though single readings can be large or run the other way; also: 0% is about no effect; nearly all actives have a fitted effect of over 55% in size; growth read by luminescence after 48 h
Cruzain Triton: inhibitors of Trypanosoma cruzi cruzain with detergent; P25779; purified cruzain, Z-FR-AMC fluorescence, 0.01% Triton; Potency, µM, inactives show max response, negative = inhibition, usual class: inhibitors; 200,000 compounds, 0.43% hits; AID 1478;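 also: plate controls were neutral wells for no effect and buffer without enzyme for full effect; nearly all actives have a fitted effect of over 40% in size; top concentration of the series not given in the record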
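Enzyme 1.5 nM, Z-FR-AMC 2 uM, NaOAc 100 mM pH 5.5, DTT 5 mM, Triton X-100 0.01%; 15 min RT compound preincubation; kinetic ex360/em450, 60 s delta.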
Numbers without * were called inactive; ? = inconclusive; / = no result given; & = joins results of further samples; [ ] = remark or other dose. Unless noted, calls follow the shape of the dose curve; as a rule, active = well fitted curve in the direction sought with a large enough effect; inconclusive = small, poorly fitted or top-dose-only effect, or another doubt; inactive = no such curve, though single readings can be large; an effect the other way counts as inactive or inconclusive. Potency is read from the fitted curve at half-maximal effect.

item	mol	Lassa entry inh	RE007 growth inh	MARV entry inh	NS1 inh	Cruzain Triton	2A StopGo	SARS PLP yeast	Cruzain inh noDet
1	CC(=O)c1cnc(Nc2ccccc2)s1	29%	16%	-5%	-45%	-0.7%	91%[activator]	10%	-2%
2	CCCC(=O)Nc1cc(-c2nc3ncccc3o2)ccc1C	1%	-2%	-8%	-3%	-4.3%	-16%	2%	-5%
3	O=C(Cn1cnc(S(=O)(=O)N2CCCCC2)c1)N1CCN(c2ccc([N+](=O)[O-])cc2)CC1	/	-15%	/	-4%	/	-14%	-3%	/
4	O=C1c2ccccc2C(Nc2ccc3c(c2)OCCO3)N1Cc1ccc2c(c1)OCO2 (centres undefined)	/	7%	-3%	-69%	-8.5%	-2%	-21%	-9%
5	O=C(C[n+]1ccccc1)c1ccc(-c2ccccc2)cc1	22%	0%	-29%[46.1 µM]	/	/	-7%	-2%	/
6	COc1ccc(C(=O)Cn2nnc(-c3ccccc3NC(=O)C(F)(F)F)n2)cc1	6%	-19%	5%[46.1 µM]	5%	-0.3%	1%	-5%	5%
7	CCOC(=O)c1cnc2ccc(OC)cc2c1Nc1ccc2c(c1)OCCO2	?	-11%	?	-167%	-16%	?	-6%	5%
8	O=C(CSc1nc(=O)[nH]c2c1CCC2)NCc1ccc(F)cc1	8%[46.1 µM]	/	/	/	-0.8%	-12%	/	7%
9	Cc1ccc(-n2ncc3c(N(CC(C)C)CC(C)C)ncnc32)c(C)c1	-18%[46.1 µM]	/	/	/	-2.6%	-22%	/	5%
10	Cc1ccc2c(c1C)NC(=O)CC2c1ccc(Cl)cc1Cl (centres undefined)	0%[46.1 µM]	/	-21%[46.1 µM]	/	-6.6%	?	/	-6%
11	CN(C)c1ccc(NC(=O)Nc2ccc3snnc3c2)cc1	21%	27%	11%	5%	-9.8%	27%	-4%	-6%
12	Cc1ccc(NC(=S)N2CCN(C(=O)C3CCCO3)CC2)cc1 (centres undefined)	-16%	-2%	?	11%	-1.8%	-25%	-1%	0%
13	S=C(NCCCN1CCOCC1)N(Cc1ccccc1)Cc1ccccc1	/	-13%	/	-4%	/	-9%	0%	/
14	COc1cc(C(=O)Nc2ccc(-c3nc4ccccc4o3)c(O)c2)cc(OC)c1OC	4%[46.1 µM]	/	/	/	1.7%	-1%	/	-6%
15	CC(C)(C)C(=O)CNS(=O)(=O)c1ccc(S(=O)(=O)NC2CC2)cc1	/	-7%	/	11%	/	5%	1%	/
16	CC1CCC(Nc2nnnn2-c2ccccc2)CC1 (centres undefined)	11%	7%	1%	10%	4.5%	/	-1%	-6%
17	O=C(NC12CC3CC(CC(C3)C1)C2)C1CC(=O)N(c2ccccc2)C1 (centres undefined)	-2%	25%	?	-9%	-0.6%	-13%	5%	8%
18	Nc1c(Cl)cc(S(N)(=O)=O)cc1S(N)(=O)=O	/	-11%	/	-2%	/	4%	0%	/
19	C#CCn1c(=NC(=O)c2ccc(S(=O)(=O)N3CCCc4ccccc43)cc2)sc2cc(S(N)(=O)=O)ccc21	2%	-4%	?	11µM*	-2.0%	?	9%	7.9µM*
20	Cc1nc2nc(SCC(=O)N3CCOCC3)nn2c(C)c1Cc1c(F)cccc1Cl	-3%	8%	6%&6%	-1%	-2.5%	10%	7%	3%
21	COc1cc(NS(=O)(=O)c2ccc(NC(=O)c3ccc(OC)c(Br)c3)cc2)nc(OC)n1	7%[46.1 µM]	/	/	/	-12%	39%[activator]	/	22%
22	C=CCOC(=O)C1=C(C)N(C)C(=O)NC1c1cc2c(cc1Br)OCO2 (centres undefined)	5%	10%	-18%	-10%	-1.6%	-13%	9%	-7%
23	COc1ccc(Oc2nc3c(c(=O)n(Cc4ccc(Br)cc4)c(=O)n3C)n2C)cc1	?	/	13%[46.1 µM]	/	-0.9%	-18%	/	26%
24	COc1ccccc1NC(=O)CSc1nnc(C)s1	12%[46.1 µM]	1%	?	3%	/	15%	7%	/
25	CCOc1ccccc1N1CCN(C(=O)C2CSC3(C)CCC(=O)N23)CC1 (centres undefined)	2%	9%	-2%	/	/	-23%	0%	/
26	COc1cc(CN(C)Cc2cc(=O)n3ccsc3n2)ccc1OC(F)F	?	9%	?	8%	/	?	2%	/
27	CCOc1cc(/C=C/c2nc3ccccc3c(=O)[nH]2)ccc1O	/	-13%	/	4%	/	0%	-3%	/
28	CCOc1ccccc1C(=O)OCC(=O)NCc1ccc2c(c1)OCO2	2%	-20%	0%	/	/	-8%	0%	/
29	COc1ccc(-n2c(=S)[nH]c3ccccc3c2=S)cc1	/	15%	/	7%	/	33%[activator]	2%	/
30	COc1ccccc1-c1cn[nH]c1-c1ccc(OCC(=O)NN)cc1O	/	-4%	/	?	/	-10%	1%	/
31	CCc1nn(CC(=O)NC(C)CC)c(=O)c2cc3c(OC)cccc3n12 (centres undefined)	/	/	1%[46.1 µM]	/	-0.4%	-14%	/	20%
32	CCN(CC)C(=O)[C@H]1CC(CC(=O)NCC23CC4CC(CC(C4)C2)C3)C(=O)N2CCc3c([nH]c4ccc(OC)cc34)[C@]12C (some centres undefined)	/	-15%	-2%	/	/	-38%	1%	/
33	CCC(c1nnnn1C(C)(C)C)N1CCN(c2cc(Cl)ccc2C)CC1 (centres undefined)	13µM*	-5%	10µM*	-59%	-2.5%	-1%	-5%	4%
34	Cc1nc(SCc2ccccc2)c([N+](=O)[O-])[nH]1	0%	-10%	?	3%	-0.9%	15%	-24%	-1%
35	CC(=O)c1ccccc1NC(=O)CSc1nnc(Cc2csc(C)n2)o1	0%	6%	23%	/	/	15%	0%	/
36	O=C(NCc1cccs1)C1CCC(CNS(=O)(=O)c2ccc(Br)s2)CC1 (centres undefined)	-17%	6%	-5%&13%	5%	-4.5%	-22%	2%	9%
37	O=[N+]([O-])c1ccc(C2Oc3ccccc3C3CC(c4ccccc4)=NN32)s1 (centres undefined)	?	/	?	-31%	-11%	/	-94%	16µM*
38	Cc1ccc(S(=O)(=O)N/N=C\c2cc([N+](=O)[O-])ccc2Cl)cc1	?	-7%	?	6%	-5.9%	/	6%	-5%
39	O=c1[nH]c(=O)n(-c2cccc(F)c2)c(O)c1/C=C1\C=Nc2ccccc21	/	8%	-7%[46.1 µM]	1%	/	-28%	5%	/
40	Cc1nc(NC(=S)NC(=O)c2cncc(Br)c2)ccc1Br	-13%	-15%	6%[14.2 µM]	3%	/	29%	0%	/
41	Cn1c(-c2ccccc2Br)n[nH]c1=S	2%	-6%	2%	/	/	-17%	/	/
42	CC(C)CNc1nc(N)c([N+](=O)[O-])c(N2CCCCCC2)n1	-28%[46.1 µM]	3%	?	-92%	/	-22%	-2%	/
43	COCCN1CCn2c(nc3cc(NC(=O)Cn4nc(C)c5ccccc5c4=O)ccc32)C1	-1%	10%	10%[46.1 µM]	?	/	-9%	-5%	/
44	N=C1C(c2nc3ccccc3c(=O)[nH]2)=C(O)CN1CCO	18%	-6%	-1%	4%	-2.0%	-5%	1%	-2%
45	O=S(=O)(Nn1c(O)c(C=C2N=c3ccccc3=N2)sc1=S)c1ccccc1	/	2%	/	-2%	/	-8%	0%	/
46	CCCCn1c(=O)[nH]c(=O)c2c1nc(COc1ccc(C#N)cc1)n2CCC	-28%	13%	1%	2%	4.6%	?	-5%	-6%
47	CC(C)C(C(=O)NCc1ccco1)N(CC1CCCO1)C(=O)CNS(=O)(=O)c1ccc(F)cc1 (centres undefined)	-24%	14%	-25%[46.1 µM]	0%	/	24%	-2%	/
48	CCOc1ccc(CCNC(=O)CCCn2c(=O)c3cccn3c3cccnc32)cc1	0%[46.1 µM]	/	/	/	-0.2%	-14%	/	5%

Another view of part of the listing above:
[24] COc1ccccc1NC(=O)CSc1nnc(C)s1
  Lassa entry inh: 12%[46.1 µM]	RE007 growth inh: 1%	MARV entry inh: ?	NS1 inh: 3%	Cruzain Triton: /	2A StopGo: 15%	SARS PLP yeast: 7%	Cruzain inh noDet: /

[25] CCOc1ccccc1N1CCN(C(=O)C2CSC3(C)CCC(=O)N23)CC1 (centres undefined)
  Lassa entry inh: 2%	RE007 growth inh: 9%	MARV entry inh: -2%	NS1 inh: /	Cruzain Triton: /	2A StopGo: -23%	SARS PLP yeast: 0%	Cruzain inh noDet: /

[26] COc1cc(CN(C)Cc2cc(=O)n3ccsc3n2)ccc1OC(F)F
  Lassa entry inh: ?	RE007 growth inh: 9%	MARV entry inh: ?	NS1 inh: 8%	Cruzain Triton: /	2A StopGo: ?	SARS PLP yeast: 2%	Cruzain inh noDet: /

[27] CCOc1cc(/C=C/c2nc3ccccc3c(=O)[nH]2)ccc1O
  Lassa entry inh: /	RE007 growth inh: -13%	MARV entry inh: /	NS1 inh: 4%	Cruzain Triton: /	2A StopGo: 0%	SARS PLP yeast: -3%	Cruzain inh noDet: /
